# Bioassay records deposited in PubChem by several laboratories.
# PABP FP inh – blocks human PABP binding to poly(A) RNA. P11940. fluorescence polarization. inhibition, % at 35 µM. 290,000 compounds, 1% hits. AID 2014;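 active means 50% or more with normal probe brightness, or confirmed in later tests; inconclusive means above 50% with abnormal brightness, or retests that disagree; inactive means below 50% or failed in later tests; about a fifth of its hits are not listed in these tables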;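 further: calls also rest on retests at 20 µM and on dose response follow-up; controls were probe without protein and protein plus probe with vehicle; some compounds called inactive have numbers as strong as hits; many hits fall short of the cut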
# UUG fidelity – yeast start codon fidelity modulation. S. cerevisiae UUG-firefly luciferase reporter, luminescence/redox ratio. activity score, % at 18.7 µM. 350,000 compounds, 0.13% hits;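 active means replicate mean at a twofold rise or more, about +100% in these data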;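 further: firefly luciferase made from a UUG start codon reports start codon fidelity; reporter light over untreated wells divided by growth signal over untreated wells; some hits fall short of that in this replicate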
# HIV Env fusion – blocks HIV Env-driven cell-cell fusion; HeLa-JRFL Env/CEM21 cell fusion, luciferase; inhibition, % at 12.3 µM; 360,000 compounds, 1.1% hits;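 active means mean replicate inhibition score of at least 50 and every replicate individually at or above 50; inconclusive means only one of the two criteria met; inactive means mean below 50 and not all replicates reaching 50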;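 further: 0% = plate neutral controls and 100% = maraviroc near 300 nM; one replicate is shown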
# Rce1 inhib – yeast Ras-converting enzyme inhibition; Q03530; yeast membranes, quenched prenylated peptide cleavage fluorescence; calls only; 290,000 compounds, 0.27% hits;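 active means fall in fluorescence gain of 50% or more versus controls, with final raw signal at or below 3038400; inconclusive means same 50% fall but final raw signal above 3038400; inactive means fall in fluorescence gain under 50%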;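 further: plate controls were neutral control wells for no effect and wells lacking membranes for full effect; tested at 10 µM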
# Target sequence (Q03530 whole entry, looked up): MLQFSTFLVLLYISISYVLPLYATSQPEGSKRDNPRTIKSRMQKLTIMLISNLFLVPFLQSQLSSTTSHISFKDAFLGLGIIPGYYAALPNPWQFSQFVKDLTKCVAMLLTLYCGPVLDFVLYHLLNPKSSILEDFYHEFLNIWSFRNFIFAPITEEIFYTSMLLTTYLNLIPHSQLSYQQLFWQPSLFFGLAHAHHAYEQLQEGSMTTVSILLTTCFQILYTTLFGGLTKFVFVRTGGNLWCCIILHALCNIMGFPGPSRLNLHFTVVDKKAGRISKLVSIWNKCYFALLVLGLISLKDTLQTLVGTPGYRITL
# CSC inhib – cancer stem cell inhibition. cancer stem cell-like cells viability, luminescence. inhibition, % at 7.5 µM. AID 2717. 300,000 compounds, 1.1% hits;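 active means mean at 75% or more and at least half the replicates too; inconclusive means mean and replicates disagree; tested in HMLE shEcad cells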;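 further: 0% = median of negative and 100% = median of positive control wells; the first replicate is given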
# eIF4H inh – inhibitors of RNA binding by human eIF4H; eIF4H fluorescence polarization binding assay; inhibition, % at 35 µM; 290,000 compounds, 0.94% hits;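 active means 50% or more with normal probe brightness, or confirmed in later tests; inconclusive means above 50% with abnormal brightness, or retests that disagree; inactive means below 50% or failed in later tests; about a fifth of its hits are not listed in these tables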;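 further: calls also rest on retests at 20 µM and on dose response follow-up; 0% = protein and probe with vehicle and 100% = probe without protein; strong numbers were not always called active; many hits fall short of the cut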
# MT1-MMP act inh – MT1-MMP (human) activation inhibition. P50281. HT1080 RFP-PRO-GFP cells, GFP/RFP ratio fluorescence, overnight; percent of plate control window, DMSO zero. GFP/RFP ratio change, % at 20 µM. 360,000 compounds, 0.061% hits;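 active means GFP/RFP ratio change of at least 30% with cell ATP level not reduced by more than half and red fluorescence within 50% of control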; further: strong numbers were not always called active
#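 Test system: HT1080 RFP-PRO-GFP cells; Benchmarks: DMSO and RFP-L50D-GFP cell wells; Timing: cells overnight before dosing, compound overnight, 37 °C, 5% CO2; Compound: one 20 µM compound dose with 1% DMSO; Read-out: GFP/RFP fluorescence ratio.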
# eIF4H inh retest – recorded beside eIF4H inh, whose call it bears; inhibition, %; compound at 20 µM; confirmation average;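 mean of two retest wells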
# PABP FP inh retest – also measured in PABP FP inh; calls as there; inhibition, %; compound at 20 µM; confirmation repeats;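 mean of two retest wells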
# MT1-MMP act inh RFP – further read-out of MT1-MMP act inh, marked with its call; RFP signal change, %; measured here: RFP expression control read;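 0 = vehicle wells; hits needed this value within 50% of zero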
# An asterisk follows results filed as active; i = inactive; ? = inconclusive; nt = no result given.
SMILES,PABP FP inh,UUG fidelity,HIV Env fusion,Rce1 inhib,CSC inhib,eIF4H inh,MT1-MMP act inh,MT1-MMP act inh RFP,others
C[C@H](NC(=O)[C@@H]1CSC2c3ccccc3C(=O)N21)C(=O)NCc1c(F)cccc1Cl (stereo partly drawn),11,-22,-1,i,-1,7,-1,1,
O=C(CSc1nnc(-c2ccncc2)n1-c1ccccc1)Nc1ccc(C(=O)O)cc1,2,-9,18,i,0,4,-1,4,
Cc1nc2ccc(Cl)cc2nc1C,-3,nt,0,i,-9,8,1,3,
CN(CC(=O)Nc1c(Cl)cccc1Cl)C(=O)Cc1ccc(S(=O)(=O)N2CCOCC2)s1,-5,2,nt,i,-13,-3,-4,-1,
CCOC(=O)c1c(C)n(CCOc2ccccc2)c2ccc(O)cc12,0,-15,-9,i,-8,9,7,3,
N=c1c2c(-c3ccccc3)c(-c3ccccc3)n(Cc3ccco3)c2ncn1CCCn1ccnc1,-15,-23,25,i,38,-13,-4,-6,
COc1ccc(CN(C)C(=O)CCN(c2ccccc2)S(=O)(=O)c2ccc(C)cc2)c(OC)c1,nt,2,35,i,-1,nt,-9,-12,
O=C(O)c1ccccc1C(=O)Nc1ccc(S(=O)(=O)Nc2ccc(F)cc2)cc1,17,-13,5,i,-7,3,0,3,
COc1ccc(Cl)cc1N/C(N)=N/c1nc(CSc2ccc(C)cc2)cc(=O)[nH]1,11,nt,2,i,-7,-9,7,-7,
Cc1ccc(-c2ccc(SCC(=O)N3CCCc4ccccc43)nn2)cc1,-5,nt,nt,i,-4,-3,nt,nt,
COc1ccc([C@H](OC)[C@@]2(Cc3ccc(O)cc3)N=C(N)N(C)C2=O)cc1,nt,-6,8,nt,6,nt,3,1,
Cn1c(=O)c2sccc2n2c(CCCC(=O)Nc3ccccc3)nnc12,3,-1,-4,i,-8,-11,-3,1,
O=C(Cn1c(-c2ccccn2)nc2ccccc21)N/N=C/c1ccccn1,7,nt,1,i,-4,-7,-1,0,
COCc1cc(NCc2ccc(Cl)cc2)nc(C)n1,-2,-21,11,i,2,5,2,-3,
O=C1CCCc2nc3c(cc21)C(O)Oc1c-3ccc2ccccc12 (stereo not drawn),10,nt,-77,i,27,-6,4,-3,
COc1ccc(N(CC(=O)NC2CCCC2)C(=O)Cn2nnc(-c3ccc(F)cc3)n2)cc1,3,3,17,i,-24,10,0,-3,
O=C(COC(=O)c1ccccn1)NC12CC3CC(CC(C3)C1)C2,-1,-24,-1,i,-11,-4,0,3,
c1ccc(OCCNc2ccn3nc(-c4cccs4)cc3n2)cc1,nt,-14,-40,nt,nt,nt,3,-3,
CN(C)S(=O)(=O)c1cccc(NS(=O)(=O)c2ccc(Cl)s2)c1,3,nt,nt,i,nt,0,1,1,
C/C(Cc1ccccc1)=N\NC(=O)CCCCCC(=O)N/N=C(\C)Cc1ccccc1,-16,-11,nt,i,-21,-9,3,2,
N/C(=N\NC(=O)c1sccc1OCc1ccc(Cl)cc1Cl)c1ccccn1,4,nt,24,i,-3,18,-6,-5,
COC(=O)c1cc(S(=O)(=O)NCC2CCN(Cc3ccc(Cl)cc3)CC2)c[nH]1,7,-19,16,i,-9,-5,4,0,
CC(NC(=O)CSc1nc(=O)cc(N)n1-c1ccccc1)c1ccccc1 (stereo not drawn),1,nt,8,i,-13,-2,-3,-1,
C[C@H]1C=C(C(=O)O)O[C@@H](OCc2ccc(CO)cc2)C1,nt,-5,-25,i,-9,nt,-3,2,
COc1ccc(/C=C/C(=O)OCC(=O)N2CCCCCC2)cc1OC,nt,-2,8,nt,-9,nt,0,2,
O=C(Nc1ccc2c(c1)C(=O)N(c1ccccc1)C2=O)c1cccs1,2,nt,-16,i,2,-4,-2,1,
COC(=O)c1ccccc1OC(=O)c1ccc(Br)o1,-1,-8,nt,i,nt,12,3,5,
CN(CC(=O)Nc1ccccc1Cl)C(=O)Cn1cnc2ccccc2c1=O,nt,1,-69,nt,nt,nt,-3,0,
O=C(COC(=O)c1ccc(F)cc1F)NC1CC1,13,nt,-2,i,18,-7,0,3,
COc1ccc(-c2nc3cc([N+](=O)[O-])ccc3o2)cc1OC,-1,nt,-77,nt,21,-10,12,3,
CCN(CC)c1ccc(/C=N/N2CCN(Cc3cccc4ccccc34)CC2)c(O)c1,-1,-15,nt,i,46,6,4,-2,
Cc1cccn2c(=O)c(/C=C(\C#N)C(=O)NC3CCS(=O)(=O)C3)c(Oc3ccccc3Cl)nc12 (stereo not drawn),15,-13,-15,nt,0,15,0,-2,
O=C(O)[C@H]1CCCC[C@H]1C(=O)Nc1ccc(S(=O)(=O)N2CCOCC2)cc1,-1,-6,5,i,nt,3,2,6,
Cc1cc(CNC(=O)Cc2c(F)cccc2Cl)nn1C,-3,nt,nt,i,-7,-6,4,0,
CCN(CC)C(=O)CSc1nc(O)cc(=O)n1-c1ccccc1OC,-6,-4,nt,i,-3,1,-5,1,
CCCn1c(=O)c2ccccc2n2c(SCC(=O)/C(C#N)=C(\C)N)nnc12,7,nt,nt,i,-3,13,4,3,
CC(C)c1ccc(NC(=O)c2ccc(NC3=NC4CS(=O)(=O)CC4S3)cc2)cc1 (stereo not drawn),49,-6,-14,i,nt,87,7,2,eIF4H inh retest=1;PABP FP inh retest=2
Cc1ccsc1CN(C)C(=O)CCc1nnc(COc2ccccc2)o1,-3,nt,-24,i,-11,1,-4,-1,
CCOC(=O)N1CCN(C(=O)C(NS(=O)(=O)c2cccc3nsnc23)c2ccccc2)CC1 (stereo not drawn),2,-10,-2,i,nt,2,7,3,
COc1ccc(CN2C(=O)c3cccnc3C2=O)cc1S(=O)(=O)N1CCOc2ccc(C)cc21,5,-18,1,i,-7,-2,0,5,
Cc1ccc(C(=O)N2CCC(C(=O)NC3CCCC3)CC2)cc1,0,-31,-32,i,-7,-6,4,1,
COc1ccc(Cn2cnc3c([N+](=O)[O-])c(C)c(C)cc32)cc1,-7,-20,-5,i,-10,-8,5,6,
O=C(CNS(=O)(=O)c1ccccc1)OCC(=O)c1ccc(OC(=O)c2ccccc2)cc1,-4,11,-77,i,-4,-3,-6,1,
CCC(=O)N1CCc2cc(OC)c(OC)cc2C1COc1ccccc1OC (stereo not drawn),27,nt,4,i,nt,21,2,1,
Cc1ccccc1OCc1nc2ccccc2c(=O)n1N,-8,1,nt,i,5,-12,2,-2,
Cc1ccc(Cn2c(C)c(C(=O)NCc3ccc4c(c3)OCO4)sc2=O)cc1,nt,-20,21,nt,nt,nt,12,-2,
Cc1ccc(C(=O)N/N=C\c2ccc3c(c2)OCO3)cn1,-4,-15,-11,i,-12,3,0,-3,
CC(C)CC(=O)Nc1nc2ccc(S(=O)(=O)N3CCOCC3)cc2s1,-7,-12,nt,i,15,5,-1,-2,
Cc1noc(C)c1COc1ccc(C(=O)Nc2ccccc2)cc1,5,nt,-45,i,-8,11,6,-6,
COC(=O)c1ccc(NC(=O)Nc2ccccc2F)cc1,0,-48,-78,i,14,5,1,-10,
O=C(CC12CC3CC(CC(C3)C1)C2)NC(=S)Nc1ccc(CN2CCOCC2)cc1,-1,nt,19,i,-16,-1,4,-7,
Cc1nc2ccccc2c(=O)n1NC(=O)c1ccc(Cl)cc1,4,-31,1,i,6,5,2,3,
COC(=O)c1ccc(CSc2nnc3sc4ccccc4n23)o1,-8,-14,nt,i,nt,-9,0,4,
COc1ccccc1N1CCN(CCCCCCOc2ccc(F)cc2)CC1,6,nt,23,i,64,-7,0,2,
C[C@H](CO)N1C[C@H](C)[C@H](CN(C)C(=O)Nc2ccc(C(C)(C)C)cc2)OCc2cnnn2CCCC1=O,nt,-5,-10,nt,nt,nt,-1,-1,
CC(=O)OC(C(=O)NCc1ccco1)c1cccnc1 (stereo not drawn),-2,13,nt,i,-5,-6,-2,5,
CCOc1ccc(Oc2cc(C)nc(SC)n2)nn1,13,4,8,i,-8,-1,4,-1,
Cc1c(C(=O)NCc2ccc3c(c2)OCO3)sc2nc(-c3ccccc3)cn12,-2,-10,-32,i,-3,8,-3,-6,
CC(C)(C)NC(=O)CN(C(=O)CSc1nnc(COc2ccccc2)o1)c1cccc(F)c1,1,-15,nt,i,13,0,-1,-3,
COc1ccc(CCNC(=O)c2sc(=S)n(C)c2N)cc1,8,-7,-39,i,-4,-5,1,2,
# Further records follow:
SMILES,PABP FP inh,UUG fidelity,HIV Env fusion,Rce1 inhib,CSC inhib,eIF4H inh,MT1-MMP act inh,MT1-MMP act inh RFP,others
Cc1cc(NC(=O)Nc2cc(Cl)sc2Cl)no1,-10,-7,-6,i,-7,-5,1,-3,
O=C(CC1CCCCC1)NCc1ccc(Cl)cc1,8,-3,-14,i,1,1,0,-1,
C/C=C/C=N/NC(=O)CN(c1ccc(Br)cc1)S(=O)(=O)c1ccccc1,-5,-15,nt,i,-4,6,-2,0,
CCCCOc1ccc(C(=O)NCC(=O)N2CC=C(c3ccccc3)CC2)cc1,nt,7,nt,i,-10,nt,4,4,
O=C(CCCOC(=O)c1ccc(O)cc1O)c1ccc(Br)cc1,nt,-7,-15,nt,nt,nt,2,4,
Cc1cc(C)nc(SCC(N)=O)n1,1,-16,-3,i,-1,-9,-6,1,
CN1CCN(C(=O)c2ccccc2NC(=O)c2ccc(C(C)(C)C)cc2)CC1,4,-27,-2,i,-27,3,-2,2,
CC1(C)CC(=O)c2cnc(NC3CC3)nc2C1,6,nt,-3,nt,2,4,-2,1,
COc1ccc(Cl)cc1CSc1n[nH]c(C)n1,-10,-12,nt,i,nt,4,3,3,
C=CCNc1nc(SCC=C)nc2ccsc12,-6,-29,nt,i,-13,-2,2,-3,
C/C(=N\OC(=O)c1ccc(Cl)cc1)c1sc(-c2ccccc2)nc1C,4,nt,nt,i,-1,-5,4,5,
O=Cc1c(N2CCCCCC2)nc2ccccn2c1=O,9,-11,-6,i,0,5,-9,0,
CCOc1ccc(N(CC(=O)NCc2ccco2)S(=O)(=O)c2ccc(OC)c(OC)c2)cc1,-1,2,nt,i,-5,0,2,-2,
CC(C)Oc1ccc(CN2CCCC(CO)(Cc3ccc(F)cc3)C2)cc1 (stereo not drawn),-2,2,9,i,20,0,0,1,
CCC(=O)N1CCC(C(N)=O)(N2CCCCC2)CC1,7,nt,18,i,-3,7,2,6,
C=CCOC(=O)C1=C[C@H](c2csc3ccccc23)C[C@H](OCc2ccc(CO)cc2)O1,nt,13,15,i,3,nt,-3,-3,
CCC1(C)NC(=O)N(CC(=O)Nc2cc(C)on2)C1=O (stereo not drawn),nt,-12,nt,nt,14,nt,6,-2,
Cn1c(=O)c(Nc2ccc(O)cc2)c2c3c(cccc31)C(=O)c1ccccc1-2,-1,nt,nt,i,29,?,-164,-7,
CC1c2nc3ccccc3n2C(CC(=O)NC2CC2)C(=O)N1Cc1ccccc1 (stereo not drawn),?,-12,11,i,-8,-1,0,3,
COC(=O)c1ccc(N2CCOCC2)c(NC(=O)c2ccc3c(c2)OCCO3)c1,5,-10,-9,i,1,-16,1,1,
O=C(CN1C(=O)c2ccccc2S1(=O)=O)N1CCN(c2cccc(Cl)c2)CC1,nt,2,nt,i,11,nt,-3,4,

# Not all compounds are listed; count on the stated rates, not on these rows.
